Compound activity deposited in PubChem BioAssay by National Center for Advancing Translational Sciences (NCATS).
N370S GC: inhibits or activates N370S mutant glucocerebrosidase. N370S GC spleen homogenate, 4MU-glucoside fluorescence. P04062. 0.092% of 330,000 active. Potency, µM (series often up to 59.4 µM), inactives show at the top dose activity change, negative = inhibition, most hits filed as inhibitors. AID 2101;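 further: 0% = full enzyme activity and -100% = no enzyme basal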
FEN1 inhibitor: blocks human flap endonuclease 1 | 0.35% of 390,000 active | Potency, µM (doses to about 114 µM), for inactives: at the top dose activity change, negative = inhibition, usual class: inhibitors | P39748 | AID 588795 | Recombinant FEN1 flap cleavage, fluorescence, 15 min; further: nearly all actives have a fitted effect of over 65% in size
Target sequence (P39748 whole entry, looked up): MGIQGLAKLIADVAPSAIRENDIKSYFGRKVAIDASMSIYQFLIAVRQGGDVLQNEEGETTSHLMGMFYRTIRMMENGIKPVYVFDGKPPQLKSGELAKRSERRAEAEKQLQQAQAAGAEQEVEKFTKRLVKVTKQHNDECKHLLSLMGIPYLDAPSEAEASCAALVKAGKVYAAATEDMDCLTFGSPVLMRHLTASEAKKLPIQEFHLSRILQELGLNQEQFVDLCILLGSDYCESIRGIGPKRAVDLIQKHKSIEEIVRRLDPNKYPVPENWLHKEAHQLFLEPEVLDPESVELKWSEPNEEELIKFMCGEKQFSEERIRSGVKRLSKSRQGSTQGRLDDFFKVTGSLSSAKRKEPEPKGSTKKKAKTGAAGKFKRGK
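In this screen, 50 nM flap DNA substrate was added to 10 nM FEN1 pretreated with compound for 15 min at room temperature; cleavage was followed with reads at 0 and 15 min, and Hill fitting gave concentration–response parameters.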
Numbers without * were called inactive; ? = inconclusive; nt = no result given; & = joins results of further samples; [ ] = remark or other dose. The call rests on the fitted dose curve; in most records, active means well fitted curve in the direction sought with a large enough effect; inconclusive means small, poorly fitted or top-dose-only effect, or another doubt; inactive means no such curve, though single readings can be large; an effect the other way counts as inactive or inconclusive. Unless noted, on the % scale 0 is the no-effect control and ±100 the full control effect; potency means the concentration at half of the fitted maximal effect. Only part of the results is shown; most or all hits stand in other tables.

N370S GC	FEN1 inhibitor	molecule
0%	-22%	COc1ccc2ccccc2c1CN1CCN(Cc2ccccc2)CC1
-5%	-10%	CCC1(c2ccccc2)NC(=O)N(CC(=O)Nc2ccc(N3CCCC3)cc2C)C1=O (stereo not given)
-4%	16%	COc1cc2c(cc1OC)CN(C(=O)c1ccco1)CC2
-4%	-1%	Cc1ccc(N(CC(=O)NC2CCCCC2)C(=O)CNC(=O)c2ccco2)cc1C
-9%	-17%&14%	CCCCN(C)CCNC(=O)C1CCCN(S(=O)(=O)c2cccc3nsnc23)C1 (stereo not given)
-11%[12.8 µM]	-5%	O=C(CSc1nnc(-c2ccncc2)n1Cc1ccccc1)Nc1nccs1
-10%	1%	O=C(NCc1ccc(F)cc1)C(=O)NCC1CCCN1S(=O)(=O)c1ccccc1 (stereo not given)
-1%	-11%	O=C(Nc1cc(Cl)ccc1N1CCOCC1)c1ccco1
0%	-2%	Cc1ccc(S(=O)(=O)N2CCC(C(=O)OCC(=O)N(Cc3ccccc3)C(C)(C)C)CC2)cc1C
4%	3%	Cc1cccc(NS(=O)(=O)c2ccc(C)c(C(=O)N(C)C3CCN(C)CC3)c2)c1
-5%	-1%	CC1CCN(CCc2nc3cc(NS(=O)(=O)c4ccccc4)ccc3n2C)CC1
2%	0%	Cc1ccc(-n2ccnc2SCC(=O)O)cc1C
-1%	-9%	O=C(NC1CCC(O)CC1)c1ccc(-c2ccc(Cl)cc2)o1 (stereo not given)
-4%	3%	Cc1ccc(OCC(O)CN2CCOCC2)cc1C (stereo not given)
11%&15%&-6%	1%	Cn1cc(C(F)(F)F)nc1-c1ccc(OCC(O)CNCCOc2ccc(O)c(C(N)=O)c2)cc1 (stereo not given)
2%	2%	Cc1cc2cc(C)c(NCCNC(=O)c3cccs3)nc2cc1C
nt	0%	CC(NC(=O)C1CCN(C(=O)c2cccs2)CC1)c1ccc(S(N)(=O)=O)cc1 (stereo not given)
-5%	24%	Cc1cc(NC(=O)CSc2nnc(CNC(=O)c3c(F)cccc3F)o2)no1
13%	-1%	CCNc1ccc(C(=O)Nc2ccc3nc(C)sc3c2)cc1[N+](=O)[O-]
4%	-13%	O=C(O)C1CC=CCC1C(=O)NCc1cn2ccccc2n1 (stereo not given)

Seven entries from above in a different format:
SMILES | N370S GC | FEN1 inhibitor
CC(NC(=O)C1CCN(C(=O)c2cccs2)CC1)c1ccc(S(N)(=O)=O)cc1 (stereo not given) | nt | 0%
Cc1cc2cc(C)c(NCCNC(=O)c3cccs3)nc2cc1C | 2% | 2%
Cc1cc(NC(=O)CSc2nnc(CNC(=O)c3c(F)cccc3F)o2)no1 | -5% | 24%
Cn1cc(C(F)(F)F)nc1-c1ccc(OCC(O)CNCCOc2ccc(O)c(C(N)=O)c2)cc1 (stereo not given) | 11%&15%&-6% | 1%
COc1ccc2ccccc2c1CN1CCN(Cc2ccccc2)CC1 | 0% | -22%
CCC1(c2ccccc2)NC(=O)N(CC(=O)Nc2ccc(N3CCCC3)cc2C)C1=O (stereo not given) | -5% | -10%
O=C(NCc1ccc(F)cc1)C(=O)NCC1CCCN1S(=O)(=O)c1ccccc1 (stereo not given) | -10% | 1%

Carrying on.
N370S GC	FEN1 inhibitor	molecule
1%	-6%	C/C(=N/NC(=O)CC1N=C(Cc2ccccc2)NNC1=O)c1cccnc1 (stereo not given)
nt	-3%	COc1ccc(-c2noc(N(c3nc(-c4ccc(OC)c(OC)c4)no3)c3ccccc3OC)n2)cc1OC
-11%	13%	CC(=O)Nc1cccc(C(=O)N2CCN(S(=O)(=O)c3ccc4ccccc4c3)CC2)c1
?	-16%	CCCCNc1nc(N(C)c2ccccc2)nc(-n2ccnc2)n1
8%	-1%	CC1(C)CC(=O)N(CC(=O)O)c2ccccc2S1
-7%	20%	Cc1nc(N2CCN(C(=O)c3ccco3)CC2)[nH]c(=O)c1C
?	-12%	Fc1ccccc1CNc1nc(-c2cccnc2)nc2ccccc12
-1%	1%	Cc1cc(CNC(=O)COc2ccccc2)c2ccccc2n1
-5%	-4%	O=C(CCCN1C(=O)c2ccccc2C1=O)NCCCN1CCOCC1
12%	-6%	CNC(=S)Nc1cc(Cl)ccc1Oc1ccccc1
3%	0%	C/C(N)=C(/C#N)C(=O)COC(=O)CNS(=O)(=O)c1ccc(F)c(F)c1F
-3%	-3%	COc1ccc(-c2csc(NC(=O)C3CC(=O)N(Cc4ccco4)C3)n2)cc1 (stereo not given)
-1%	-4%	O=Cc1c(Nc2cccc(C(F)(F)F)c2)nc2ccccn2c1=O
-3%	40%	CSCCC(NS(=O)(=O)c1ccccc1F)C(=O)Nc1cccc(C)n1 (stereo not given)
1%	-6%	Cc1nn(-c2ccc(Cl)cc2)c(=O)c2c(C)noc12
-9%	3%	COc1ccccc1NS(=O)(=O)c1ccc(C(=O)N2CCN(c3ccccc3O)CC2)cc1
5%	2%	CC(C)Cc1ccc(C(C)C(=O)Nc2cccnc2)cc1 (stereo not given)
2%	12%	Cc1ccc2nc(-c3cccc(Br)c3)cc(C(=O)NCC3CCCO3)c2c1 (stereo not given)
nt	13%	Cn1c(=O)cc(N2CCN(C(=O)c3ccco3)CC2)[nH]c1=O
-13%	-11%	Cc1ccc(S(=O)(=O)N2CC(O)CC2C(=O)OCc2nc3sc(C)c(C)c3c(=O)[nH]2)cc1 (stereo not given)
-2%	-4%	COc1ccccc1CCNS(=O)(=O)CCNC(=O)c1ccc2c(c1)OCO2
-6%	-3%	CC(C)(C)c1ccc(CCC2OCC(CN3CCOCC3)O2)cc1 (stereo not given)
7%	2%	CC(CN1CCCC1)OC(=O)Cc1ccc(Cl)cc1 (stereo not given)
-2%	-15%	Cc1ccc(N(CCC#N)C(=O)COC(=O)c2ccccn2)cc1
-9%	25%	CC(=O)Nc1ccc(NS(=O)(=O)c2c(Cl)cccc2Cl)cc1
-28%	-8%	CCN1CCN(S(=O)(=O)c2ccc(Cl)c(C(=O)N(C)Cc3ccc(Cl)cc3Cl)c2)CC1
-5%	5%	CCn1cc(CN2CCC(C(=O)Nc3ccc(Oc4cccnc4)cc3)CC2)c(C)n1
-5%	2%	O=C(NCCc1ccc(Cl)cc1)c1ccc2nc(N3CCOCC3)sc2c1
-14%	7%	Cc1ccc(-n2nnnc2/C=C\Nc2cc(C)on2)cc1
-7%	-3%	Cc1ccc(NC(=O)CSc2nnnn2-c2ccc3c(c2)OCO3)cc1C
-3%	-3%	Cc1cc(C)cc(OCC(=O)Nc2ccc(N3CCCCC3)cc2)c1
-2%	-6%	COCC1CCCCN1Cc1cn(-c2ccccc2)nc1-c1ccc2c(c1)OCO2 (stereo not given)
21%	nt	CCNc1ncc2nc(-c3ccc(Cl)cc3)c(=O)n(Cc3cccc(OC)c3)c2n1
nt	-16%	CCOc1ccc(NS(=O)(=O)c2cc(NC(=O)C3CC3)ccc2C)cc1Br
5%	nt	Cc1sc2nc(C(C)Sc3n[nH]c(N)n3)[nH]c(=O)c2c1C (stereo not given)
1%	0%	Cc1c(NC(=S)SCc2ccccc2)c(=O)n(-c2ccccc2)n1C
-2%	-22%	COc1cc(/C=N/N2CCN(Cc3ccc(Cl)cc3)CC2)cc(Br)c1O
6%	3%	C(=C\c1ccccc1)/CNn1cnnc1
2%	23%	COc1cc2c(cc1OC)C(C1C(=O)CCCC1=O)N(C(=O)CCl)CC2 (stereo not given)
-26%	-2%	COc1ccccc1C(=O)NC(=O)COC(=O)c1cnc(C)cn1
-19%	?	COc1cc(-c2noc(C)c2-c2ccc(N(C)C)nc2)cc(OC)c1OC
2%	-2%	CC(=O)N1Cc2cc(N)ccc2Oc2ccccc21
-5%	9%	COc1ccc(C(=O)Nc2ccc(-c3n[nH]c(=S)o3)cc2)cc1OC
-7%	-5%	COc1ccc(C2NC(=O)NC(C)=C2[N+](=O)[O-])cc1OC (stereo not given)
8%	0%	COc1cc(C=O)ccc1OS(=O)(=O)c1ccc(NC(C)=O)cc1
-5%	-6%	CNC(=S)N/N=C/c1ccc(-c2ccc(Cl)c([N+](=O)[O-])c2)o1
-3%	1%	CCOC(=O)c1cc(S(=O)(=O)N2CCN(C3CCCCC3)CC2)cn1C
nt	2%	COCCNC(=O)c1cccc(Nc2nc3ccccc3n3nnnc23)c1
-11%	12%	COC(=O)C(C)Sc1nc2c(c(=O)[nH]c(=O)n2C)n1CCC(C)C (stereo not given)
-20%	0%	NC(=O)N\N=C/C=C/C=C/c1ccc(F)cc1
15%	-6%	CCOc1ccccc1NC(=O)C1CCCN1C(=O)OCc1ccccc1 (stereo not given)
-28%	11%	COc1ccc(C(=O)c2c3ccc(C(F)(F)F)cc3[n+]([O-])n2CCCN)cc1
6%	-6%	COC(=O)CC1(c2ccccc2)C(=O)c2ccccc2C1=O
3%	5%	C=C(C)c1cccc(C(C)(C)NC(=O)Nc2ccc(C(C)=O)cc2)c1
5%	-16%	COc1ccccc1NS(=O)(=O)c1cc(NC(=O)/C=C/c2cccs2)ccc1N1CCOCC1
-11%	-2%	CCCc1cc(=O)oc2cc(OC(C)C(=O)NCc3ccccn3)c(Cl)cc12 (stereo not given)
?	-3%	CC(C)[C@@H]1NC(=O)c2cc([N+](=O)[O-])cc(I)c2OCC[C@@H](C(N)=O)NC(=O)[C@H](CCC(=O)O)NC1=O
-4%	-4%	Nn1c(-c2ccccc2)nc2cc(Cl)ccc2c1=O
7%	-6%	CC(C)COC(=O)Nc1ccccc1C(=O)N1CCOCC1
2%	0%	Oc1ccc(F)c2cccnc12

Going on with the list.
N370S GC	FEN1 inhibitor	molecule
-19%	-1%	O=C(CC1C(=O)NCCN1Cc1cccc(F)c1F)NCCCC1CCCC1 (stereo not given)
-10%	-1%	Cc1occc1C(=O)N1CCN(c2ccc(Cl)cc2)CC1
-8%	-8%	CN(C)C(=O)c1ccc(NC(=O)COc2cccc3c2OC(C)(C)C3)cc1
nt	15%	CCc1cc(C(=O)NCc2ccc(F)cc2)no1
nt	15%	Cc1cc(C(=O)COc2cccc([N+](=O)[O-])c2)c(C)n1C1CC1
1%	1%	Cc1nn(Cc2ccccc2)c(C)c1NC(=O)c1cccs1
-7%	14%	Cc1cc(OC(C)C(=O)NNC(=O)Nc2ccc(F)cc2F)cc(C)c1Cl (stereo not given)
10%	-1%	Cc1cc(Cl)ccc1NC(=O)NC1CCN(S(=O)(=O)c2ccc(F)cc2)CC1
-13%	3%	COc1ccc(S(=O)(=O)NCc2ccncc2)cc1NC(=O)c1ccccc1
-2%	-12%	Cc1cccc(-c2n[nH]c(=S)n2/N=C/c2ccco2)c1
-3%	1%	CC1(C)CC(NCCC(c2ccccc2)c2ccco2)CCO1 (stereo not given)
4%	8%	CC1(C)CC(=O)C2=C(C1)N(Cc1cccnc1)C(=O)C2(NC(=O)C1CC1)C(F)(F)F (stereo not given)
0%	2%	Cc1ccc(OCCC(=O)OC(C)C(=O)Nc2c(C)n(C)n(-c3ccccc3)c2=O)cc1 (stereo not given)
5%	1%	Cc1cc(C)nc(NS(=O)(=O)c2ccc(NC(=O)c3cccs3)cc2)n1
nt	0%	COc1ccc(NC(=O)C2CCN(C(=O)Nc3ccccc3)CC2)cc1S(=O)(=O)N(C)C
-1%	-4%	CSCCC(NC(=O)/C(=C\c1ccc(Cl)cc1)NC(=O)c1ccccc1)C(=O)O (stereo not given)
-1%	-5%	CCn1ccc(C(=O)NCCCN2CCCC2=O)n1
0%	5%	COc1ccc(C2CC(C(F)(F)F)n3nc(C(=O)O)cc3N2)cc1 (stereo not given)
10%	18%	Cc1cccc(N2CCN(C(=O)N3CCCCC3)CC2)c1C
8%	-5%	Cc1ccc(OCCOC(=O)c2sc(=S)n(C)c2C)cc1
8%	-2%	Cc1nc(SCC(N)=O)[nH]c(=O)c1CCC(C)C
2%	1%	CC1CCCN(S(=O)(=O)c2ccc(NC(=O)Cn3nnc(-c4ccccc4F)n3)cc2)C1 (stereo not given)
6%	-10%	O=C(CN1CCN(S(=O)(=O)c2ccc(Br)cc2)CC1)Nc1ccc(F)cc1F
-3%	1%	COC(=O)c1nn(-c2ccc(OC)cc2)c(=O)cc1Oc1cccc(Cl)c1
8%	-18%	O=C(NNC(=O)c1cc(-c2ccccc2)nc2ccccc12)Nc1cccc(Cl)c1
1%	-1%	CC(C)N(C(=O)N1CCC(c2nc(-c3ccncc3)no2)CC1)C(C)C
-3%	0%	CCN=C1SC(CC(=O)NC(N)=O)C(=O)N1CC (stereo not given)
-2%	3%	O=C(CN1CCOCC1)Nc1ccc(C2CCCCC2)cc1
0%	4%	CCCCN(C(=O)c1cccc(S(=O)(=O)N2CCN(C)CC2)c1)c1c(N)n(CCC)c(=O)[nH]c1=O
-14%	-9%	CCOc1ccc2ccccc2c1C(=O)NCC(c1ccc(N(C)C)cc1)N(C)C (stereo not given)

5 records drawn at random from those above:
N370S GC	FEN1 inhibitor	molecule
2%	1%	CC1CCCN(S(=O)(=O)c2ccc(NC(=O)Cn3nnc(-c4ccccc4F)n3)cc2)C1 (stereo not given)
-4%	-4%	Nn1c(-c2ccccc2)nc2cc(Cl)ccc2c1=O
-3%	-3%	COc1ccc(-c2csc(NC(=O)C3CC(=O)N(Cc4ccco4)C3)n2)cc1 (stereo not given)
-7%	14%	Cc1cc(OC(C)C(=O)NNC(=O)Nc2ccc(F)cc2F)cc(C)c1Cl (stereo not given)
nt	13%	Cn1c(=O)cc(N2CCN(C(=O)c3ccco3)CC2)[nH]c1=O
